Screening results from PubChem.
D2 ag: human D2 receptor agonism in beta-arrestin assay. 0.084% of 360,000 active. activation, % (test concentration not listed). DiscoveRx PathHunter D2 beta-arrestin, luminescence, 90 min; 100% = 57 uM dopamine signal. AID 624465; in the data active = activation above about 40%; inconclusive = about 15% to 40%; inactive = below about 15%; further: compound concentration not given in the record; the text of the record calls up to 30% inactive
Target sequence (P14416 whole entry, looked up): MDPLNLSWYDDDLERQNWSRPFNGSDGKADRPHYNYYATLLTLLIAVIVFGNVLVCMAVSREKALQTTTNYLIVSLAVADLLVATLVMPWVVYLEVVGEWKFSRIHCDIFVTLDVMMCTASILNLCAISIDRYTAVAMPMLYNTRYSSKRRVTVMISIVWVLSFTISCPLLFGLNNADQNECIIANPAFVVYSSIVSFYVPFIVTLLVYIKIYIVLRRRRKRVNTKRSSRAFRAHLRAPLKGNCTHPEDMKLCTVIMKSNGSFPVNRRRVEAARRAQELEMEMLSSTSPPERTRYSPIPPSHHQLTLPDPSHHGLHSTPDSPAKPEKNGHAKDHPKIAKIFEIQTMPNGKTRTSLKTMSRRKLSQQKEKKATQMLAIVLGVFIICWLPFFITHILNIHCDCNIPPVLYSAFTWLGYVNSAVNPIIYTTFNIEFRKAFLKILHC
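Agonist mode: compounds alone added to overnight-plated D2 PathHunter cells for 90 min at 37 C, with 57 uM final dopamine (EC100) defining full response. Beta-arrestin recruitment detected by chemiluminescent reagent, read after 1 h at ambient temperature.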
gsp ag: gsp mutant agonism; gsp mutant cells, cAMP HTRF, 30 min; control for the full effect not named in the record; Potency, µM (doses to about 76.9 µM), for inactives: at the highest dose activation (cAMP increase), hits mostly activators; 0.13% of 340,000 active; AID 624287; active = well fitted activation curve with a large enough effect; inconclusive = small, poorly fitted or top-dose-only effect, or another doubt; inactive = no such curve, though single readings can be large or run the other way; cell line not stated here;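 further: phosphodiesterase inhibitor Ro 20-1724 added with compounds to block cAMP breakdown; potency means the concentration at half of the fitted maximal effect; nearly all actives have a fitted effect of over 60% in size; about a fifth of the inactives were tested at one dose only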
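Cells in DMEM/10% FBS with G418 were pretreated with compounds in DMSO plus […] (300 uM stock) for 30 min at 37C. cAMP was measured by HTRF (cAMP-d2 plus anti-cAMP antibody-K) after 30 min at room temperature.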
PINK1 expr mod: changes PINK1 expression; 0.2% of 410,000 active; Potency, µM (series often up to 76.6 µM), for the others: at the top dose activation (PINK1 increase), usual class: activators; AID 624263; PINK1 immunofluorescence, high-content cytometry, 24 h; active = well fitted activation curve with a large enough effect; inconclusive = small, poorly fitted or top-dose-only effect; inactive = flat fitted curve, though single readings scatter; cell line not stated here;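 further: potency means the concentration at half of the fitted maximal effect; % of control where 0% means no effect; nearly all actives have a fitted effect of over 65% in size; a mitochondrial uncoupler was the plate control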
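Compound titrations (5 concentrations, 24 h) on a stable cell line; DMSO and CCCP controls. Endpoint: fixed-cell PINK1 immunofluorescence with mitochondrial, cell and nuclear markers, scanned by microplate cytometer.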
ClpP mod: qHTS Assay for Activators of ClpP; ATP-dependent Clp protease proteolytic subunit (Bacillus subtilis (strain 168)), P80244; purified B. subtilis ClpP, FRET peptide cleavage, 20 min; Potency, µM (highest dose often 57.5 µM), for the others: at the highest dose activity change, negative = active; 1.9% of 340,000 active; active = well fitted falling curve with a large enough effect; inconclusive = small, poorly fitted or top-dose-only effect; inactive = no such curve, though single readings can be large or run the other way; further: potency means the concentration at half of the fitted maximal effect; the source files actives as falling curves though it sought activators and does not explain the sign; nearly all actives have a fitted effect of over 65% in size; many hits overshoot -100%
Target sequence (P80244 whole entry, looked up): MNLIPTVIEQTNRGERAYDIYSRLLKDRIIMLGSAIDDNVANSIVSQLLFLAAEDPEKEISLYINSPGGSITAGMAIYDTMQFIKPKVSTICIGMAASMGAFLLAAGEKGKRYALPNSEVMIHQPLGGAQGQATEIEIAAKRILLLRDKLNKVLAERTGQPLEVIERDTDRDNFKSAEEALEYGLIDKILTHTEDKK
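FRET quenching reversal measured ClpP activation: 10 microg/mL B. subtilis ClpP at pH 8 with the FRET-FV decapeptide, read at 430 nm after 320 nm excitation. The 20-min minus 0-min signal was scaled between DMSO/no-enzyme wells and ADEP (5.8 microM final).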
Menin-MLL FL inh: displaces fluorescein MLL peptide from human menin; Fluorescence polarization, fluorescein-MLL peptide displacement from menin; FP activity change, % at 61.4 µM; 290,000 tested, under 10 active; AID 1766; inconclusive = falling polarisation curve, or a change in total fluorescence; inactive = total fluorescence flat and polarisation flat or rising; no compound was filed as active; the % refers to the polarisation; negative = inhibition;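 further: % of control where 0% means no effect; inhibitors lower the polarisation; unlabelled MLL peptide was the positive control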
gsp antag: gsp mutant antagonism | Potency, µM (top dose mostly 76.9 µM), for inactives: top-dose activity change, negative = inhibition, hits mostly inhibitors | 0.4% of 340,000 active | gsp-mutant cells, cAMP HTRF, 30 min; control for the full effect not named in the record; active = falling curve of any shape with a large fitted effect; inconclusive = falling curve, mostly with a smaller effect; inactive = flat or rising curve; cell line not stated here;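 further: intracellular cAMP measured with PDE inhibitor Ro 20-1724 present during compound exposure; potency means the concentration at half of the fitted maximal effect; on the % scale 0 is the no-effect control and ±100 the full control effect; nearly all actives have a fitted effect of over 65% in size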
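Cells in G418 medium, seeded 16-24 h, 37C; buffer exchange to DPBS + 1 mM CaCl2, 0.5 mM MgCl2, 0.05% BSA; cpds in DMSO + […] (300 uM stock), 30 min 37C; HTRF cAMP detection.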
Sfp inh: Sfp phosphopantetheinyl transferase inhibition; 3.5% of 310,000 active; AID 1490; Biochemical Sfp PPTase activity, qHTS; Q9F4F7; Potency, µM, inactives show max response, negative = inhibition, most hits filed as inhibitors; active means well fitted inhibition curve with a large enough effect; inconclusive means small, poorly fitted or top-dose-only effect, or another doubt; inactive means no such curve, though single readings can be large or run the other way;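 further: the enzyme is Sfp with the accession as filed and its product quenches rhodamine fluorescence; potency means the concentration at half of the fitted maximal effect; 0% = enzyme reaction without inhibitor and -100% = no enzyme wells; top concentration of the series not given in the record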
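Fluorescence-quenching assay: 15 nM Sfp-PPTase preincubated 15 min at room temperature with compound, then 5 uM rhodamine-CoA and 12.5 uM BHQ-2-labelled YbbR peptide added. Fluorescence (ex 525/em 598 nm) read at start and after 30 min; difference gives rate.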
The depositor's hits bear a star; ? = inconclusive; / = not tested or not shown; ! = not confirmed by another sample; [ ] = another dose, or the depositor's remark.

SMILES	D2 ag	gsp ag	PINK1 expr mod	ClpP mod	Menin-MLL FL inh	gsp antag	Sfp inh
COc1ccc(C2=NS(=O)(=O)N(C)C(C(=O)NCc3ccc4c(c3)OCO4)=C2)cc1	2.1	-58%[inhibitor]	-0.2%	0.0%	3.9	-14%	5%
COc1cc(OC)cc(C(=O)NCCNC(=O)c2ccccn2)c1	-0.3	0%	0.0%	/	0.4	4%	8%
CC(=O)c1ccccc1NS(=O)(=O)c1c(C)nn(-c2ccccc2)c1C	0.2	4%	1.9%[38.3 µM]	-0.1%	1.0	-21%	5%
COc1ccc(-c2ccc(CCC(=O)O)n2-c2cc(OC)ccc2OC)cc1	-3.1	-24%	9.4%	-7.9%	/	/	/
CCOCCCNC(=S)NCCNc1nc2c(C)cccc2cc1C#N	-0.3	-16%	/	-24%	14	-6%	50µM*
Cc1ccc(C)c(NC(=O)CSc2ccc(S(=O)(=O)N3CCCC3)cn2)c1	3.1	16%	16%	-0.3%	/	-11%	/
Cc1ccccc1N1CCN(S(=O)(=O)c2nnc(NC(=O)c3ccco3)s2)CC1	2.7	?	0.0%	-15%	-3.8	-34%	25%
O=C(Nc1cc(S(=O)(=O)N2CCOCC2)ccc1N1CCCC1)c1ccc(Cl)cc1	-1.4	?	4.0%	-2.5%	/	-1%	/
ON=C1c2ccccc2-c2ccc(F)cc21	1.1	-23%	-5.9%	?	/	9%	/
Cc1cccc(C2c3[nH]c4ccccc4c3CCN2C(=O)c2cc(C(C)C)nc(N)n2)n1 (configuration not stated)	0.1	-109%[inhibitor]	-0.1%	-1.1%	-0.1	-14%	10%
CC1CCCCN1CCNC(=O)C1CCN(S(=O)(=O)N2CCCCC2)CC1 (configuration not stated)	3.2	-69%[inhibitor]	/	-4.2%	-4.4	1%	15%
CC1=CC(C)(C)N(S(=O)(=O)c2ccc(C)cc2)c2cc(C)ccc21	0.9	0%	/	0.6%	0.0	5%	?
Cc1cc2c(OCC(O)CN3CCCC3)cccc2[nH]1 (configuration not stated)	-9.9	2%[15.4 µM]	-0.5%	/	0.2	/	8%
Cc1ccc2c(c1)C(=O)CCCCC(=O)N2	-4.7	0%	3.9%	-2.8%	0.4	7%	7%
O=C(CCc1ccccc1)n1nc(-c2ccccc2)nc1NCc1ccco1	0.8	27%	2.9%[38.3 µM]	9.5%	0.6	-1%	0%
CC(NS(=O)(=O)c1ccc(Cl)c(Cl)c1)C(=O)Nc1cccnc1 (configuration not stated)	-3.0	2%[15.4 µM]	-0.6%	1.0%	/	-2%	/
COC(=O)c1ccc(NC(=O)C(=O)N2CCN(C(=S)Nc3ccc(C)cc3)CC2)cc1	2.0	?	-0.9%	-0.4%	3.3	-20%	15%
COc1ccc(S(=O)(=O)Nc2cccc3c2O[C@H](CN(C)C(=O)NC(C)C)[C@@H](C)CN([C@H](C)CO)C3=O)cc1	-3.1	/	-2.2%	-5.8%	/	3%	/
CC(C)Cc1nnc(NS(=O)(=O)c2ccc([N+](=O)[O-])cc2)s1	0.9	6%[15.4 µM]	0.3%	-0.1%	2.2	?	?
O=C(Nc1ccccc1Cl)c1cc(C2CCCN(C(=O)C3CCCCC3)C2)on1 (configuration not stated)	2.0	/	3.9%	-0.4%	/	/	/
O=C(NCCC(=O)N1CCN(S(=O)(=O)c2ccccc2)CC1)c1ccc(Br)cc1	-6.1	-4%[15.4 µM]	0.7%	?	/	-5%	/
CCc1nc2ccc(C(=O)NCCCN3CCCC3=O)cn2c1N(C)C(=O)Nc1ccccc1OC	-4.2	/	1.6%	-1.6%	/	/	/
Cc1nn(S(=O)(=O)c2ccccc2)c(C)c1S(=O)(=O)N1CCOCC1	-2.7	-10%[15.4 µM]	-1.4%	/	/	1%	6%
Cn1cnc(S(=O)(=O)Nc2cc(-c3ccc(Cl)cc3)nn2C)c1	-2.7	2%	-0.1%	0.5%	3.7	10%	11%
CC(C)(C)C(=O)CSc1nccc(=O)[nH]1	0.2	-13%	4.3%[38.3 µM]	-2.2%	-0.3	-3%	15%

Single records, from the list above. Values in the order: D2 ag	gsp ag	PINK1 expr mod	ClpP mod	Menin-MLL FL inh	gsp antag	Sfp inh
`O=C(Nc1cc(S(=O)(=O)N2CCOCC2)ccc1N1CCCC1)c1ccc(Cl)cc1` in the list: -1.4	?	4.0%	-2.5%	/	-1%	/
`Cc1cc2c(OCC(O)CN3CCCC3)cccc2[nH]1` (configuration not stated) in the list: -9.9	2%[15.4 µM]	-0.5%	/	0.2	/	8%
`Cc1ccccc1N1CCN(S(=O)(=O)c2nnc(NC(=O)c3ccco3)s2)CC1` in the list: 2.7	?	0.0%	-15%	-3.8	-34%	25%
`CC1=CC(C)(C)N(S(=O)(=O)c2ccc(C)cc2)c2cc(C)ccc21` in the list: 0.9	0%	/	0.6%	0.0	5%	?

Later entries:
SMILES	D2 ag	gsp ag	PINK1 expr mod	ClpP mod	Menin-MLL FL inh	gsp antag	Sfp inh
CCC(=O)N1CCc2cc(S(=O)(=O)CCC(=O)O)ccc21	-1.3	5%	0.1%	0.6%	3.0	0%	13%
CCOc1ccc(S(=O)(=O)Nc2ccc(C(=O)N/N=C/c3c(C)nn(-c4ccccc4)c3N3CCCC3)cc2)cc1	-0.5	2%	-1.0%	-21%	/	-22%	33%[activator]
NNc1nnc2c3cc(F)ccc3n(Cc3ccccc3)c2n1	-2.0	-5%[15.4 µM]	32µM*	/	-2.1	-28%	-2%
CCOC(=O)C1=C(C)NC(=O)NC1c1ccc(N2CCC(c3ccccc3)=N2)cc1 (configuration not stated)	1.8	4%	-1.6%	3.7%	?	-2%	-13%
COC(=O)c1[nH]c(C)c(/C(O)=C2\C(=O)C(=O)N(CCN3CCOCC3)C2c2ccc(C)o2)c1C (configuration not stated)	1.2	10%[15.4 µM]	2.5%	-2.2%	0.8	7%	5%
CC1(C)Cc2ccccc2-c2c1c(=O)n(Cc1ccccc1)c1nnnn21	-3.9	?	1.5%	?	-1.2	-17%	3%
COc1ccccc1N1CCN(c2cc(=O)n(-c3ccccc3Cl)c(=O)[nH]2)CC1	1.8	-10%	-0.3%[38.3 µM]	0.0%	-0.9	-13%	1%
CCOC(=O)/C(=C/c1ccc(OC(F)F)cc1)C1=Nn2c(nnc2-c2ccc(Cl)cc2)SC1	-1.2	7%	-2.2%	/	/	0%	/
CS(=O)(=O)N(Cc1ccc(C(=O)NN=C2CCCCCC2)cc1)c1ccccc1	4.5	15%	-4.4%	32µM*	2.4	-5%	-10%
Cc1ccc(NCc2nnc(SCC(=O)c3ccccc3)o2)c(C)c1	-0.8	-40%[inhibitor]	1.6%	0.8%	-0.3	-5%	-10%
CNc1c(NC(=O)COc2ccc(Cl)cc2)c(=O)oc2ccccc12	-7.4	7%	1.9%	2.2%	0.4	-3%	6%
COc1ccc(CCN2C(=NC(=O)CCC(=O)O)SC3CS(=O)(=O)CC32)cc1OC (configuration not stated)	-0.3	1%	-0.2%	-1.3%	3.5	0%	11%
CCOC(=O)c1[nH]c(COC(=O)CCOc2ccccc2OC)c(C(=O)OCC)c1C	5.0	5%	/	-1.2%	9.0	-1%	2%
CCOC(=O)C1CCCN(CC(=O)c2c[nH]c3ccc(C)cc23)C1 (configuration not stated)	-2.1	-2%	-0.6%	-4.2%	4.6	0%	1%
CCS(=O)(=O)c1ccc2oc(Nc3ccc(OC)c(OC)c3)nc2c1	0.6	5%	-2.3%	/	4.8	2%	-3%
Cc1ccnc(SCCn2c(N3CC(C)CC(C)C3)nc3c2c(=O)n(C)c(=O)n3C)n1 (configuration not stated)	0.2	0%	5.6%	4.4%	2.7	0%	16%
Cc1ccc(/C=N/NC(=O)NC2CCCCC2)o1	1.6	5%	3.7%	/	-4.3	11%	20%
CCCCC(c1nnnn1Cc1ccco1)N1CCN(C(=O)c2ccco2)CC1 (configuration not stated)	-2.8	0%	-2.0%	0.1%	2.3	-17%	-22%
COc1ccc(Cc2nnc(NC(=O)c3c(-c4ccccc4)noc3C)s2)cc1	-3.2	9%	3.8%	1.7%	4.6	-13%	11%
COc1ccc(NC(=O)CSc2nnc(C3CC3)n2C)cc1	-0.8	8%[15.4 µM]	2.6%	/	-0.3	/	-5%
COc1ccc(CN(C)C(=O)C2CCN(S(=O)(=O)c3cccs3)CC2)cc1F	2.4	-11%	0.8%	0.0%	/	-16%	/
CCC(CC)c1nc(NCCC(=O)O)c2ccccc2n1	-0.7	-12%	-0.9%[38.3 µM]	-3.4%	-0.4	-2%	10%
CNc1ccc(S(=O)(=O)NCC(=O)NCCCc2ccccc2)cc1[N+](=O)[O-]	-1.0	-10%	-0.9%	1.7%	/	-12%	-7%
N#C/C(=C\c1ccncc1)c1ccc(NC(N)=O)cc1	1.6	12%	1.2%	-6.6%	0.2	-2%	9%
CCC(=O)c1ccc(OCC(=O)Nc2ccc(S(=O)(=O)Nc3cc(C)nc(C)n3)cc2)cc1	-2.8	17%[15.4 µM]	-1.5%	0.5%	/	2%	/

(next part)
SMILES	D2 ag	gsp ag	PINK1 expr mod	ClpP mod	Menin-MLL FL inh	gsp antag	Sfp inh
CN(C)c1nnnn1-c1ccc(OC(F)(F)F)cc1	-3.1	-24%[15.4 µM]	4.3%	/	-0.5	17%	13%
O=S1(=O)CC2N=C(N(Cc3ccc(F)cc3Cl)c3ccccc3F)SC2C1 (configuration not stated)	5.2	0%	0.3%	1.4%	0.9	-1%	4%
CCOc1ccc(OCC(=O)N2CCOCC2)cc1	-2.0	-40%[inhibitor]	0.9%	-0.9%	1.2	5%	7%
O=C(Nc1ccccc1)Nc1ccccc1	3.4	/	0.6%	1.9%	1.2	-5%	4%
Cc1ccc(C[n+]2cc(-c3ccc(Cl)cc3)n3c2CCC3)cc1	1.1	5%	2.8%	/	3.7	11%	10%
Cc1nnc(SCC(=O)Nc2nc(-c3ccc(F)cc3)cs2)[nH]c1=O	-0.8	11%	2.5%	/	-1.0	-3%	-2%
O=c1cc(-c2ccc(O)cc2)oc2cc(O)cc(O)c12	-5.3	/	0.1%	-2.1%	?	2%	32µM*!
